Screening results deposited in PubChem by PCMD.
FXIa inh = blocks human coagulation factor XIa activity; 33,000 tested, 0.3% active; P03951; purified human FXIa, fluorogenic AMC substrate cleavage; inhibition, % at 10 µM;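 active = inhibition above 40% in the primary screen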;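 also: 0% = enzyme without compound and 100% = blank wells lacking enzyme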
Target sequence (P03951 19-387 limits assumed): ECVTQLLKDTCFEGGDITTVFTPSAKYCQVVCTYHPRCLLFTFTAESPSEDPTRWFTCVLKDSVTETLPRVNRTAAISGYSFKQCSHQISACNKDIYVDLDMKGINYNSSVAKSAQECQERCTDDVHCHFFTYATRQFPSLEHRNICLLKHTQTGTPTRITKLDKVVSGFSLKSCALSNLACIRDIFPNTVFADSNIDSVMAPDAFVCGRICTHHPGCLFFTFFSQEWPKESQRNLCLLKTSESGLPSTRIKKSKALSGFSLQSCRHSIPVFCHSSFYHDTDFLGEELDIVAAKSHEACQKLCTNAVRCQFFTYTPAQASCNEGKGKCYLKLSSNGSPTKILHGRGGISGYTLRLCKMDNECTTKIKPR
Target sequence (P03951 388-625 limits assumed): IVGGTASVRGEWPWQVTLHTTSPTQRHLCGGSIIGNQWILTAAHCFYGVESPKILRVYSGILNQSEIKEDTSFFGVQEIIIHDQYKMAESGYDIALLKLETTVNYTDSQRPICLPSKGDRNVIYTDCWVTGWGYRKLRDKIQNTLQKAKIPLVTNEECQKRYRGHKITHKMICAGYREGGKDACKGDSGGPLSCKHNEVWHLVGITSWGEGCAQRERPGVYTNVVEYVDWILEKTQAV
The depositor's hits bear a star. This is a subset, and most or all hits are left out here.

SMILES	FXIa inh
CCC(=O)n1nc(-c2ccccc2)nc1N	9.7
COc1ccc(C(=O)n2cnnc2N)cc1	25.1
Cc1cc(NC(=O)C2CC(c3cccc(Br)c3)=NO2)no1 (stereo not given)	-1.2
COc1ccc(C(=O)n2nc(-c3ccco3)nc2N)cc1	1.2
O=C(CSc1nc(-c2ccco2)cc(C(F)(F)F)n1)Nc1ccc2c(c1)CCC2	1.0
Cc1onc(-c2ccccc2)c1C(=O)n1nnc2ccccc21	25.2
CCCC(=O)n1nc(-c2ccccc2)nc1N	-3.6
CCNC(=O)CC1C(=O)N(c2ccc(C)cc2)C(=O)N1CCc1ccc(OC)c(OC)c1 (stereo not given)	0.6
O=C(CSc1nc(-c2ccco2)cc(C(F)(F)F)n1)N1CCN(c2ccc(Cl)cc2)CC1	-6.8
Nc1nncn1C(=O)c1cc(Br)ccc1Cl	1.2
Cc1cccc(N2CCN(C(=O)c3ccc4nc(-c5ccco5)c(-c5ccco5)nc4c3)CC2C)c1 (stereo not given)	-12.4
COc1ccc(C(=O)N2CCN(S(=O)(=O)c3ccc(Cl)cc3)CC2)cc1OC	9.8
O=C(CSc1nc(-c2ccco2)cc(C(F)(F)F)n1)N1CCc2ccccc2C1	2.4
CC(C)(C)c1ccc(C2(C)NC(=O)N(CC(=O)c3ccc[nH]3)C2=O)cc1 (stereo not given)	8.5
Cc1ccc(-c2nc3ccccc3c(=O)n2CCN2CCOCC2)cc1	-1.3
O=C1C(=O)N(c2ccccc2)c2ccccc21	-8.7
CCN(CC)C(=O)C1=C(C)Nc2nnnn2C1c1cccnc1 (stereo not given)	1.2

Gathered by group, the compounds so far with sulfur
SMILES	FXIa inh
O=C(CSc1nc(-c2ccco2)cc(C(F)(F)F)n1)Nc1ccc2c(c1)CCC2	1.0
O=C(CSc1nc(-c2ccco2)cc(C(F)(F)F)n1)N1CCN(c2ccc(Cl)cc2)CC1	-6.8
COc1ccc(C(=O)N2CCN(S(=O)(=O)c3ccc(Cl)cc3)CC2)cc1OC	9.8
O=C(CSc1nc(-c2ccco2)cc(C(F)(F)F)n1)N1CCc2ccccc2C1	2.4

3 entries out of the list above, ordered by their value in FXIa inh, ascending:
SMILES	FXIa inh
Cc1ccc(-c2nc3ccccc3c(=O)n2CCN2CCOCC2)cc1	-1.3
COc1ccc(C(=O)n2nc(-c3ccco3)nc2N)cc1	1.2
COc1ccc(C(=O)n2cnnc2N)cc1	25.1
